# Screening results from PubChem BioAssay.
# LANA-H2A inh: blockers of LANA interaction with H2A/H2B – biochemical, FP readout, HTS, primary screen | Protein LANA1 (Human herpesvirus 8 type P (isolate GK18)), Q9QR71 | cell-free LANA-H2A/H2B peptide, fluorescence polarization | inhibition, % (concentration not given with the values) | 320,000 compounds, 0.6% hits; in the data active means inhibition mostly above about 10%, no sharp cut-off; inactive means mostly below about 6.7%;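 further: stock transfer was 7.5 nL into about 10 µL; 0% = median of vehicle wells and 100% = median of positive control wells; one replicate is shown; the record names a cut of 25% in any replicate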
# Bfl-1 A1 inh: caspase 3/7 activation in MEF A1-2A-BIM cells, primary screen, A1 inhibitor project, cell-based, luminescence, HTS. Caspase-Glo 3/7 luminescence, 3 h; percent of clofoctol response, vehicle zero. caspase activation, % (no concentration beside the values). 330,000 compounds, 0.066% hits;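 active means over half of replicate activation scores above 10%, or exactly half above 10 with the replicate mean above 10; inconclusive means replicate mean below 10 yet half the replicates above 10; inactive means over half of replicates below 10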;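 further: wells of about 30 µL received 50 nL stock; many hits fall short of the cut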
# RanGTP-Impb inh: inhibitors of RanGTP-importin-beta interaction, primary screen, biochemical, FRET, CFP-Ran, YFP-importin-beta, homogeneous. Ran GTPase (GTP-bound) - importin-beta complex. cell-free CFP-Ran/YFP-importin-beta FRET ratio. inhibition, % (concentration not given with the values). 300,000 compounds, 1.1% hits;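 active means most replicates above 15%; inconclusive means exactly half above 15%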;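 further: 0% = DMSO wells and 100% = Ran loaded with GDP instead of GTP; wells of about 40 µL received 100 nL stock; the first replicate is given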
# Beta2AR agonist: beta2AR agonists driving receptor internalization, primary screen, cell-based, FAP fluorogen, flow cytometry; 340,000 compounds, 0.43% hits; AID 504454, 2011; Beta-2 adrenergic receptor (Homo sapiens), P07550; Am2.2-beta2AR cells; reference of the scale not given here; response, % (concentration not given with the values);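 active means response above a set limit, near 3 SD of response in nonfluorescent compounds, cut at about 42% in these data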;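 further: stock transfer was 100 nL into about 11 µL; a reference agonist was the positive control; negative values mostly stem from fluorescent compounds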
# Target sequence (P07550 whole entry, looked up): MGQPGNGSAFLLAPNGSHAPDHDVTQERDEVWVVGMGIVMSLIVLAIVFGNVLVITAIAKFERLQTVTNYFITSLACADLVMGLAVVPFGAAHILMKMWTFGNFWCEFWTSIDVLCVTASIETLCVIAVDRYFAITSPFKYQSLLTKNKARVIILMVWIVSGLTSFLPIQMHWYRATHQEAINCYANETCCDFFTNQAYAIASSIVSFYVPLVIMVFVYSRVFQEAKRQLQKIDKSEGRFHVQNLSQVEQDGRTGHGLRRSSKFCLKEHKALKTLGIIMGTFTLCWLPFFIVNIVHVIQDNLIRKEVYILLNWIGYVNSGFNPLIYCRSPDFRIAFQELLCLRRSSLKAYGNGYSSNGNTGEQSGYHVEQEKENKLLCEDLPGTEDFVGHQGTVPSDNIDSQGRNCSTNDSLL
# T cruzi inh: inhibitors of intracellular T. cruzi growth, primary screen, luminescence, NIH3T3 host cells | T. cruzi beta-gal in NIH3T3, 90 h | inhibition, % (concentration not given with the values) | 300,000 compounds, 1.4% hits | AID 1885, 2009;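 active means mean inhibition across valid replicates above about 55%, limit read from the data; inconclusive means mean below that limit but half or more replicates reach it; inactive means mean below it, under half of replicates reach it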;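 further: signal also drops with host cell toxicity which is not excluded here; 0% = plate median of DMSO wells and 100% = zero luminescence signal; higher percent means less beta-gal luminescence so fewer parasites; stock transfer was 50 nL into about 50 µL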
# Beta apoptosis: inhibitors of cytokine-induced beta cell apoptosis, primary screen, luminescence; INS-1E cytokine-induced death, ATP luminescence, 48 h; percent of positive-control rescue, neutral wells zero; protection from apoptosis, % (concentration not given with the values); 300,000 compounds, 0.8% hits; AID 435005, 2010;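 active means all replicates at 75% or more, or half of them and the mean; inconclusive means half reach 75% but not the mean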;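 further: 0% = cytokine-treated negative control wells and 100% = positive control rescue; higher means more ATP so stronger rescue from cytokine killing; wells of about 40 µL received 100 nL stock; the first replicate is given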
# UCH37 inh: inhibitors of human UCH37 deubiquitinase, primary screen, biochemical, Ub-AMC cleavage, fluorescence. purified proteasome/UCH37. inhibition, % (test concentration not listed). 330,000 compounds, 0.33% hits;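 active means mean of two replicates above 20%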;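 further: 0% = compound-free wells with enzyme and 100% = wells lacking proteasome; stock transfer was 100 nL into about 20 µL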
# Target sequence (Q9Y5K5 whole entry, looked up): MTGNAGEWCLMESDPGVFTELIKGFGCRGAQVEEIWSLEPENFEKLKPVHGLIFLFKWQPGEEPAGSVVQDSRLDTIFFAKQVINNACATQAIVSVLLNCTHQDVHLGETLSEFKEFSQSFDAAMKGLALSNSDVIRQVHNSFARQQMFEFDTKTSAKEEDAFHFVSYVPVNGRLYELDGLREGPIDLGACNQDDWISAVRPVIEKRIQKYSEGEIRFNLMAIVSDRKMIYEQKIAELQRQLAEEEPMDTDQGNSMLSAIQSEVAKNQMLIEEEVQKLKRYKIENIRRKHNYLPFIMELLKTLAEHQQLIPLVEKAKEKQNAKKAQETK
#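 Schedule: 30 min plus 25 min, room temperature / Material: human UCH37 within purified proteasomes / Technique: AMC fluorescence intensity at 355/460 nm / Buffer or medium: pH 7.4 Tris-HCl (50 mM) with ovalbumin, ATP-MgCl2, DTT / Controls: wells without proteasome as full block, compound-free enzyme plus substrate as uninhibited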
# Calb FLC: C. albicans growth inhibition with fluconazole, primary screen, CaCi-2 strain, Alamar Blue fluorescence | C. albicans CaCi-2 (fluconazole-resistant clinical isolate) + fluconazole, 48 h | growth inhibition, % (concentration not given with the values) | 300,000 compounds, 0.57% hits | AID 1979, 2009;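 active means most replicates above 75%; inconclusive means exactly half above 75%; inactive means most below 75%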;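 further: all wells also contain fluconazole at 8 µg/ml as a sub-toxic cotreatment; 0% = median of DMSO wells and 100% = median of geldanamycin control wells; wells of about 8 µL received 7.5 nL stock; the first replicate is given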
# Active calls of the source: *; ? = inconclusive; . = no result given.
molecule	UCH37 inh	Beta apoptosis	Beta2AR agonist	Bfl-1 A1 inh	T cruzi inh	RanGTP-Impb inh	LANA-H2A inh	Calb FLC
CC(=O)c1ccc2c(c1)C1C(Cl)C(Sc3ccccc3[N+](=O)[O-])CC1C(c1ccccc1)N2 (configuration not stated)	3.2	19.8	9.4	-1.5	18.2	0.9	0.3	13.2
COc1ccc(CC2(CCc3ccncc3)C(=O)NC(=O)NC2=O)c(OC)c1	3.6	4.2	4.0	-0.3	0.7	-0.8	-8.5	-11.7
O=C(O)CCC(=O)NCCC1=c2ccccc2=N/C1=C\c1c(O)n(Cc2ccc(F)cc2)c(=S)[nH]c1=O	3.8	2.6	6.0	0.8	-11.0	1.3	1.6	-5.7
Cc1cc(C=C2C(=O)NC(=S)NC2=O)c(C)n1C1CCCC1	1.8	-0.2	7.9	0.5	-15.4	1.8	-1.6	4.2
Cc1ccccc1CCNCc1ccc(Br)cc1	1.6	-1.0	14.1	-0.3	38.8	?	-3.6	1.7
N=C1c2ccccc2CN1NC(=O)c1ccco1	1.8	-1.4	0.8	-0.3	.	.	0.1	.
COc1ccc(-c2nc3ccccc3n2OC(=O)N(C)C)cc1	0.9	7.1	-4.5	-0.4	1.3	2.0	-2.1	1.3
Cc1nc2ccccc2c(=O)n1-c1ccc(Cl)cc1[N+](=O)[O-]	2.1	-16.4	-4.8	0.6	6.0	-2.7	-0.2	2.5
O=C(COc1ccc(S(=O)(=O)N2CCCCC2)cc1)N1CCN(Cc2ccccc2)CC1	3.1	1.3	-8.4	-0.5	18.1	-1.2	0.3	7.2
O=C(CF)NC(Nc1cccc2cccnc12)C(Cl)(Cl)Cl (configuration not stated)	1.1	-7.3	0.9	-0.3	-4.1	-2.2	0.3	-4.1
COC(=O)C1=C(c2ccc(OCc3ccccc3)cc2)C[C@@H]2CC[C@H]1N2C(=O)NCc1cccc(OC)c1	1.3	-1.5	-1.9	0.4	.	.	0.7	.
CC(=O)NC(C)Cc1ccccc1 (configuration not stated)	0.7	-5.2	-6.2	0.3	-9.0	2.2	7.3	-3.9
C=CC(C)C(C(=O)c1ccccc1)N(C)C (configuration not stated)	-0.8	-9.5	23.9	-1.1	.	-3.0	0.5	-4.6
Cn1c(O)c(C=NCc2cccs2)c(=O)n(C)c1=O	1.5	-1.9	-6.0	0.4	-3.2	2.7	7.8	17.5
CC(C)(C)n1cc(C(=O)c2ccccc2OCCCF)cn1	-3.1	1.2	-11.3	0.3	-6.6	1.6	5.1	-20.5
COC(=O)C1=C(c2ccc(S(C)(=O)=O)cc2)C[C@@H]2CC[C@H]1N2C(=O)NCc1ccco1	2.3	.	4.0	-0.8	-11.7	-1.6	7.4	1.1
O=C(c1ccco1)c1cn(Cc2ccc(Cl)cc2)c2ccccc12	-0.5	-9.1	-7.3	-0.4	-11.9	1.9	1.1	1.2
OCCN(CC#CC(O)(c1ccccc1)C1CCCC1)CCO (configuration not stated)	32.3*	-4.6	-5.3	0.6	-26.3	2.6	4.2	?
COC(=O)[C@@H]1C[C@]2(C(=O)O)c3ccccc3N(OOSc3ccccc3)[C@@H]2N1C(=O)OC	1.1	-4.8	1.2	1.3	-23.0	-4.5	4.9	-1.2
COC(=O)C1=C(c2ccc(Cl)c(C(F)(F)F)c2)C[C@@H]2CC[C@H]1N2C(=O)N1CCOCC1	2.9	-1.4	-1.9	0.7	.	.	-0.5	.
CCNC(=O)NNC(=O)C1CC(c2cccnc2)=NO1 (configuration not stated)	2.7	3.0	-2.6	0.9	-8.7	-2.8	-2.8	1.8
CC(=O)OC1N=C(c2ccc(Cl)cc2)c2cc(Br)ccc2NC1=O (configuration not stated)	3.8	-3.2	-20.2	0.3	17.5	-2.6	1.8	-0.9
Cc1ccc(N2C(=O)NC(=O)C(CCc3ccncc3)(Cc3cccc(Cl)c3Cl)C2=O)cc1 (configuration not stated)	0.5	8.6	-11.4	-0.2	2.9	-1.0	-9.1	-2.2
CC(C)C(=O)Nc1nnc(CCN(CCc2nnc(NC(=O)C(C)C)s2)[N+](=O)[O-])s1	2.3	-1.3	-5.3	0.5	20.5	1.1	-2.8	-0.5
CCCCn1c(=O)c(C(=O)Nc2ccccc2C)c(O)c2ccccc21	-10.2	45.9	0.6	1.1	-10.6	0.3	-0.3	-10.6
O=C1c2ccccc2C(=O)N1Cc1nc2ccccc2c(=O)n1-c1cccnc1	2.0	-8.0	-10.2	0.2	-5.9	-0.7	1.8	-8.1
CNC(=O)Oc1ccc(-c2cn3cc(C)ccc3n2)cc1	-31.4	19.7	-1.0	-5.6	-29.3	1.1	0.6	2.9
COCCn1c(-c2ccccc2)cc(C(=O)O)c1C	2.8	-0.3	0.4	0.2	-3.2	?	3.0	-2.4
COc1ccc(CC2c3cc(OC)c(OC)cc3CCN2C)cc1OC (configuration not stated)	-1.1	-2.0	-9.9	0.8	3.7	-0.6	-0.2	2.6
Cc1cccc(C)c1NC1=NCCCCS1	1.7	-0.8	11.3	0.9	-30.6	1.9	2.5	-11.8
Cc1cccc(OP(N)(=O)Oc2cccc(C)c2C)c1C	3.9	-1.1	5.2	-0.3	0.4	2.8	-3.5	-2.8
COC(=O)C1=C(c2ccc(-c3ccccc3)c(F)c2)C[C@@H]2CC[C@H]1N2C(=O)NCCO	6.5	5.0	6.3	0.5	.	.	-6.8	.
COCCOC(=O)C1=C(C)OC(N)=C(C(=O)OC)C12C(=O)Nc1ccccc12 (configuration not stated)	3.0	4.6	-12.6	1.3	-6.1	16.2*	-1.0	-7.8
CC/C(=N\Nc1ccccc1)c1c(O)n(C)c(=O)n(C)c1=O	5.0	5.1	29.2	0.4	6.0	5.3	4.7	5.6
COc1ccc2c3c1OC1C(O)C=CC4C(C2)[N+](C)(C)CCC341 (configuration not stated)	3.6	-4.8	-6.3	0.4	-2.9	0.5	2.2	-7.8
COC(=O)C1=C(c2cccc(OC)c2OC)C[C@@H]2CC[C@H]1N2C(=O)N1CCC(C)CC1	1.2	-9.0	-1.6	0.3	7.9	-0.5	1.0	8.0
CCC1(CC)C(=O)N(C)C(=O)NC1=NC	1.0	.	-3.2	0.3	-0.1	-1.6	-8.4	-12.3
N/C(=N\[N+](=O)[O-])N1CCN(C(=O)c2ccccn2)CC1	.	-5.1	4.2	0.2	-7.6	4.3	0.5	-1.4
CC1=C(C/C(C)=C/c2ccccc2)/C(=C/CO)[C@@H]2OC(=O)O[C@]2(C)C12CC2	2.6	-3.8	-2.0	0.7	-3.8	4.0	5.4	7.9
Cc1cc(C=C2C(=O)NC(=O)NC2=O)c(C)n1-c1ccncc1	4.2	-0.8	8.5	1.6	-11.7	1.0	0.2	9.8
Cc1ccc2cc3cc(C(=O)N4CCC5(CC4)OCCO5)oc3nc2c1	-45.9	1.1	13.2	0.4	-2.1	-4.6	0.9	-3.1
COc1ccc(CN2CCN(Cc3ccccc3OC)CC2)cc1	0.3	1.3	-4.6	0.5	12.1	-3.9	1.9	-9.0
Fc1ccc(C2=CCN(C(c3ccc(Cl)cc3)c3nnnn3Cc3ccccc3)CC2)cc1 (configuration not stated)	2.3	-0.7	2.0	-0.6	37.6	-0.2	-0.4	?
CC1(C)CC(=O)C(C=NCCN2CCN(C(=O)Cc3ccc(Cl)cc3)CC2)=C(O)C1	4.1	-8.8	-14.3	0.2	-15.3	3.0	-2.9	3.7
CC(=O)OC(C)(C)/C=C/C(=O)[C@](C)(O)C1[C@H](O)C[C@@]2(C)C3CC=C4C(C[C@H](O)C(=O)C4(C)C)[C@]3(C)C(=O)C[C@]12C (some centres not stated)	3.3	57.5	65.7*	20.7*	.	.	7.8	.
Cc1ccccc1CN1CCNCC1	1.0	-1.6	0.9	0.0	-1.4	-1.8	-3.2	2.6
O=C(NC1CCCCC1)N1C[C@H]2C[C@@H](C1)c1cccc(=O)n1C2	0.7	-2.0	-4.6	-0.1	-17.3	-3.2	1.7	-5.7
Cc1ccccc1-n1c(O)c(C=NCCN2CCOCC2)c(=O)[nH]c1=O	4.3	1.0	2.9	0.6	-4.2	-1.9	-0.5	.
CCCCn1c(O)c(C(C)=NCC2CCCO2)c(=O)[nH]c1=O (configuration not stated)	2.7	-14.6	2.7	-0.3	-21.6	2.7	2.2	8.5
COC/C=C1\CN2C3C[C@@H]1[C@H]1COC4=Nc5cc(OC)c(OC)c(OC)c5[C@@]43C[C@@H]12	-9.4	-0.8	3.4	-0.3	-18.3	-3.1	0.8	2.6
COc1cccc(CNCCc2ccc(F)cc2)c1	0.3	-4.1	-7.4	0.0	43.2	3.6	3.0	-9.2
CCOCCN1CCN(c2nnc3n2-c2ccc(Cl)cc2C(c2ccccc2Cl)=NC3)CC1	0.9	0.0	-12.2	0.1	19.8	0.1	3.0	-4.1
CCOC(=O)c1c(C)n(Cc2ccccc2)c2ccc(OCC(O)CNC(C)(C)C)cc12 (configuration not stated)	4.8	8.2	24.0	1.4	30.0	1.2	3.1	-15.7
CC(=O)OC1(c2ccccc2)CCN(C)C(C)C1C (configuration not stated)	0.7	-4.1	1.2	-0.7	-7.3	2.1	2.4	-5.4
O=C(c1ccc(C(F)(F)F)cc1)C1CCCN(Cc2ccncc2)C1 (configuration not stated)	-0.8	31.8	-6.6	0.8	41.0	-1.1	-2.4	-23.9
Cc1ccc(/C=C2\C(=O)NC(=S)N(c3cccc(F)c3)C2=O)o1	1.1	.	49.8*	1.1	-14.3	-2.7	4.8	29.6
O=C1Nc2cc(C(=O)N3CCC4(CC3)OCCO4)ccc2S/C1=C\c1ccccc1	-6.8	16.9	3.4	2.0	-2.7	-6.9	0.5	-13.5
CN/C=C(/Cl)P(=O)(OC(C)C)OC(C)C	4.2	.	-1.4	0.3	-15.2	3.4	-2.5	-9.3
CN(C)CCN=Cc1c(O)n(-c2cccc3ccccc23)c(=O)[nH]c1=O	4.9	-7.3	-1.0	-0.4	-17.2	7.0	-7.3	-9.9
O=C(Oc1c(Cl)cc(Cl)c2ccccc12)N1CCCCC1	1.3	5.6	29.8	2.4	.	2.3	-7.8	-15.0
CCC(C)C12CN3CCN(CC(C)(C3)C1O)C2 (configuration not stated)	2.0	-6.6	0.2	0.6	-4.3	-3.1	1.6	4.2
[N-]=[N+]=NCCN1CCC(O)CCC1=O (configuration not stated)	.	-4.5	-4.7	0.7	-5.5	0.8	1.4	12.7

# Some of the compounds tested. The share of hits here may be higher or lower than overall.
